BJeLR viability: BJeLR cell viability loss | BJeLR (HRASV12) viability, CellTiter-Glo ATP luminescence, 48 h; reference of the scale not given here | inhibition, % (no concentration beside the values) | hit rate 0.17% among 300,000 | AID 1554;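 active means replicate mean above 50%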;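 further: 50 nL library stock added to about 25 µL; numbers are from one replicate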
Sa ugtP lethal: compounds lethal to S. aureus RN4220 ugtP deletion mutant; OD600 growth, 16 h; some inactives read as strong as hits; growth inhibition, % (test concentration not listed); hit rate 0.54% among 330,000; AID 1259309;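 active means z-score under -3 and OD600 up to 0.15 on both plates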;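 further: plate controls were untreated wells for no effect and antibiotic for full effect; wells of about 80 µL received 100 nL stock; the first replicate is given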
RN4220 kill: S. aureus RN4220 growth inhibition. OD600, 16 h. inhibition, % (concentration not given with the values). hit rate 0.33% among 330,000;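 active means z-score of -3 or lower and OD600 up to 0.18 on both plates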;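 further: plate controls were untreated cells for no effect and reference antibiotic for full effect; stock transfer was 100 nL into about 80 µL; one replicate is shown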
Mtb hypoxia inh: inhibitors of hypoxia-regulated fluorescent reporter in Mycobacterium tuberculosis. M. tuberculosis hypoxia-regulated fluorescent reporter, fluorescence. fluorescence inhibition, % (no concentration beside the values). hit rate 0.1% among 300,000;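 active means 35 to 45% if threefold the growth effect, above 45% if 1.5-fold the growth effect; inactive means the rest, general growth blockers included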;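 further: wells of about 50 µL received 100 nL stock; 0% = vehicle wells and 100% = reference inhibitor wells; whole bacteria with a GFP reporter of the hypoxia response; strong numbers were not always called active; many hits fall short of the cut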
PrP UTR inh: inhibition of PrP 5' UTR reporter expression. inhibition, % (test concentration not listed). cell-based PrP 5' UTR mRNA reporter, plate reader. hit rate 0.35% among 340,000;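 active means every replicate at 50% or more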;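 further: 0 = median of the neutral control wells; tested in H4 reporter cells; numbers are from one replicate; inactives centre near -14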
Autofluor counter: flagged as autofluorescent in microsphere protease counterscreen; compound autofluorescence counterscreen, microsphere flow cytometry; active compounds read high; fluorescence intensity (no concentration beside the values); hit rate 3.1% among 360,000; AID 624483;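 active means at least 3 SD above the mean of all compounds, about 16000 in these data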;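 further: 100 nL of 1 mM stock went into each well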
Mtb hypoxia inh growth: further read-out of Mtb hypoxia inh, marked with its call; growth inhibition, %; measured here: M. tuberculosis growth (absorbance);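 0% = vehicle and 100% = reference antibiotic; read after six days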
The depositor's hits bear a star; · = not tested or not shown; & = joins results of further samples.

(1) CN(C)S(=O)(=O)c1ccc(C(=O)Nc2cc(S(=O)(=O)Nc3ccccc3Cl)ccc2N2CCCCC2)cc1
(2) COc1ccc(N=C2S/C(=C\c3ccc(OCC(=O)O)cc3)C(=O)N2CCc2c[nH]c3ccccc23)cc1
(3) CSc1ccccc1C(=O)C1CCCN(Cc2ccccn2)C1 (stereo not given)
(4) COc1ccccc1/C=C/C=NNC(=O)c1ccccn1
(5) CCN1C(=O)C(NC(C)=O)c2cc(OC)ccc21 (stereo not given)
(6) CCOc1cc(CN2CCC(CO)(Cc3cccc(C(F)(F)F)c3)CC2)ccc1OC
(7) CC(C)(C)c1cc(C(=S)N2CCCC2)cc(C(C)(C)C)c1O
(8) CC(C)n1c2ccccc2c2nc3ccccc3nc21

Compound,1,2,3,4,5,6,7,8
BJeLR viability,12,5,-3,·,-7,-6,5,4
Sa ugtP lethal,-10,21,-1,2,-4,-2,20,-2
RN4220 kill,48,24,4.5,1.9,-13,-1.7,-1.2,5.0
Mtb hypoxia inh,-1,-4,5,-1,13,12,0,·
Mtb hypoxia inh growth,0,-2,-2,13,9,2,1,·
PrP UTR inh,-6,-5,-52,·,-16,-35,-12,2
Autofluor counter,7569,4245,4703,·,2774,3903,3156,4635

(9) O=C(c1ccccc1)C(CCc1ccccn1)CCc1ccccn1
(10) N#Cc1c(-c2ccccc2)nc(SCc2cccc(Cl)c2)[nH]c1=O
(11) Cn1c(C(=O)N2CCN(c3nc4ccccc4s3)CC2)cc2sccc21
(12) Cc1ccc2c(c1)N(C(=O)CCC(=O)NC1CCCCCC1)CCO2
(13) CC1(C)CC(=O)C=C(c2cccc(Cl)c2O)C1
(14) CCOc1ccc(CCNC(=O)CCNC(=O)c2ccccc2Cl)cc1OCC
(15) CC(=O)NC12CC3CC(C1)CC(C(=O)Nc1nc4ccc(F)cc4s1)(C3)C2
(16) Cc1cc(C(C)(C)C)cc(C)c1CC1=NCCN1

Compound,9,10,11,12,13,14,15,16
BJeLR viability,·,-1,-2,-11,·,0,6,-3
Sa ugtP lethal,0,27,-1,0,11,2,-13,-1
RN4220 kill,3.2,33,-0.5,3.9,9.2,1.1,-3.6,4.1
Mtb hypoxia inh,5,11,5,-2,2,3,5,14
Mtb hypoxia inh growth,-7,2,7,-1,1,5,-10,13
PrP UTR inh,-69,-15,-11,-3,-11,-18,-31,-8
Autofluor counter,3936,3588,19151*,5421,4318,5782,7024,5449

(17) COCCNC(=O)c1cn(C)c(=O)c2cc(OC)c(OC)cc12
(18) CC1CN(S(=O)(=O)c2cccc(C(=O)OCc3cc(=O)oc4cc(O)ccc34)c2)CC(C)O1 (stereo not given)
(19) CCOC(=O)c1[nH]cnc1C(=O)O
(20) O=C1c2cccc3cccc(c23)C(=O)N1CCN1CCN(CC(O)COc2ccccc2)CC1 (stereo not given)
(21) O=C1N/C(=N/NC(=O)c2cccc3ccccc23)S/C1=C\c1ccccc1OCc1ccccc1
(22) CCOc1ccc(NC(=O)CN2CCN(S(=O)(=O)c3ccc(Cl)cc3)CC2)cc1
(23) CCOc1cc(C(=O)NCc2ccc3c(c2)OCO3)cc(OCC)c1OCC
(24) COc1ccccc1OCCNC(=O)c1cccc(S(=O)(=O)N2CCN(Cc3ccccc3)CC2)c1

Compound,17,18,19,20,21,22,23,24
BJeLR viability,-6,-7,3,6,·,5,-12,·
Sa ugtP lethal,2,-12,2,·,-3,-11,4,-1
RN4220 kill,1.7,3.4,-0.5,·,0.2,0.2,3.1,3.7
Mtb hypoxia inh,1,4,·,·,5,·,6,-8
Mtb hypoxia inh growth,0,8,·,·,8,·,2,4
PrP UTR inh,-4,-12,-29,-9,-1,-18,2,-21
Autofluor counter,3944,4433,2674,2393,3718,4289,·,3698

Arranged by number of heavy atoms (lowest first): 15 of the compounds above
(19) CCOC(=O)c1[nH]cnc1C(=O)O
(13) CC1(C)CC(=O)C=C(c2cccc(Cl)c2O)C1
(16) Cc1cc(C(C)(C)C)cc(C)c1CC1=NCCN1
(8) CC(C)n1c2ccccc2c2nc3ccccc3nc21
(7) CC(C)(C)c1cc(C(=S)N2CCCC2)cc(C(C)(C)C)c1O
(17) COCCNC(=O)c1cn(C)c(=O)c2cc(OC)c(OC)cc12
(10) N#Cc1c(-c2ccccc2)nc(SCc2cccc(Cl)c2)[nH]c1=O
(9) O=C(c1ccccc1)C(CCc1ccccn1)CCc1ccccn1
(11) Cn1c(C(=O)N2CCN(c3nc4ccccc4s3)CC2)cc2sccc21
(15) CC(=O)NC12CC3CC(C1)CC(C(=O)Nc1nc4ccc(F)cc4s1)(C3)C2

Compound,19,13,16,8,7,17,10,9,11,15
BJeLR viability,3,·,-3,4,5,-6,-1,·,-2,6
Sa ugtP lethal,2,11,-1,-2,20,2,27,0,-1,-13
RN4220 kill,-0.5,9.2,4.1,5.0,-1.2,1.7,33,3.2,-0.5,-3.6
Mtb hypoxia inh,·,2,14,·,0,1,11,5,5,5
Mtb hypoxia inh growth,·,1,13,·,1,0,2,-7,7,-10
PrP UTR inh,-29,-11,-8,2,-12,-4,-15,-69,-11,-31
Autofluor counter,2674,4318,5449,4635,3156,3944,3588,3936,19151*,7024

(23) CCOc1cc(C(=O)NCc2ccc3c(c2)OCO3)cc(OCC)c1OCC
(14) CCOc1ccc(CCNC(=O)CCNC(=O)c2ccccc2Cl)cc1OCC
(18) CC1CN(S(=O)(=O)c2cccc(C(=O)OCc3cc(=O)oc4cc(O)ccc34)c2)CC(C)O1 (stereo not given)
(20) O=C1c2cccc3cccc(c23)C(=O)N1CCN1CCN(CC(O)COc2ccccc2)CC1 (stereo not given)
(24) COc1ccccc1OCCNC(=O)c1cccc(S(=O)(=O)N2CCN(Cc3ccccc3)CC2)c1

Compound,23,14,18,20,24
BJeLR viability,-12,0,-7,6,·
Sa ugtP lethal,4,2,-12,·,-1
RN4220 kill,3.1,1.1,3.4,·,3.7
Mtb hypoxia inh,6,3,4,·,-8
Mtb hypoxia inh growth,2,5,8,·,4
PrP UTR inh,2,-18,-12,-9,-21
Autofluor counter,·,5782,4433,2393,3698

Next part
(25) C#CCOC(=O)C[N+](C)(C)C/C=C/c1ccccc1
(26) CSc1nc(C)nc2c1c(=O)n(C)c(=O)n2C
(27) CCCCN(C(=O)c1ccncc1)c1c(N)n(CCC)c(=O)[nH]c1=O
(28) COc1cccc(/C=C/C(=C2/C(=O)N(c3ccccc3)N=C2C)c2ccccc2)c1OC
(29) CC(CSc1ccccc1)CN1CCC(NC(=O)OCc2ccccc2)CCC1=O (stereo not given)
(30) O=C(N1CCOCC1)N1CCN(S(=O)(=O)N2CCOCC2)CC1
(31) CCOc1ccc(C2CC(c3ccc(OC)cc3)n3ncnc3N2)cc1 (stereo not given)
(32) O=C1CSC(c2cn(-c3ccccc3)nc2-c2cc3ccccc3o2)N1Cc1ccccc1 (stereo not given)

Compound,25,26,27,28,29,30,31,32
BJeLR viability,1,-12,·,-4,·,-1,-10,-7
Sa ugtP lethal,3,-1,-1,12,1,4,2,65
RN4220 kill,0.6,-2.6,-0.2,1.1,7.5,5.5,3.2,-4.7
Mtb hypoxia inh,-2,8,1,-4,8,·,·,0
Mtb hypoxia inh growth,3,4,4,1,5,·,·,3
PrP UTR inh,-6,9,-13,-17,·,-10,0,-28
Autofluor counter,3496,5813,2848,2336,·,3532,4371,3139

(33) COc1cccc(/C(O)=C2/C(=O)C(=O)N(CCN3CCOCC3)C2c2cccnc2)c1 (stereo not given)
(34) CCCC(=O)Nc1ccc(NC(=O)c2ccco2)cn1
(35) Cc1[nH]n(-c2ncc(-c3ccc(Cl)cc3)s2)c(=O)c1C(c1ccc(Cl)cc1)C(C#N)C#N (stereo not given)
(36) Cn1nc(C(=O)NNC(=O)c2ccccc2Br)c2ccccc2c1=O
(37) C=CCOc1cccc(C(=O)N2CCC(CCC(=O)NC3CC3)CC2)c1
(38) COCC(=O)N1CCCc2ccccc21
(39) COC(=O)C1=C(C)N(CCc2c[nH]c3ccccc23)C(=O)C1
(40) COc1ccc(/C=C2/SC(=S)N(CC(=O)O)C2=O)cc1OCc1ccc(Cl)cc1

Compound,33,34,35,36,37,38,39,40
BJeLR viability,1,2,-8,·,-10,-2,-3,5
Sa ugtP lethal,0,3,52,9,0,-3,3,11
RN4220 kill,3.1,-0.1,39,5.6,1.5,-1.1,2.2,8.1
Mtb hypoxia inh,8,·,5,-7,-3,-3,15,0
Mtb hypoxia inh growth,11,·,2,-9,-6,8,13,10
PrP UTR inh,-11,-33,-45,-35,-22,2,-20,-58
Autofluor counter,4285,3703,2175,4871,5667,9065,5970,3999

(41) CC1CCN(C(=O)Cn2nnc(-c3cccs3)n2)CC1
(42) CN(C)C1(CNC(=O)CC(NC(=O)c2ccccc2Cl)c2ccccc2)CCCCC1 (stereo not given)
(43) CCOc1ncccc1C(=O)NCC(c1ccco1)N1CCCCC1 (stereo not given)
(44) COc1cc(/C=C(\NC(=O)c2ccccc2)C(=O)NCC(=O)O)c([N+](=O)[O-])cc1OC
(45) O=C(CC1CCCC1)Nc1nnc(C2CC2)s1
(46) Cc1ccc(S(=O)(=O)n2[nH]c(=O)cc2N)cc1
(47) CN(C[C@H](Cc1ccccc1)N(C[C@H](Cc1cccc2ccccc12)N(CCc1ccccc1)N=O)N=O)N=O
(48) O=C(CSc1nnc(-c2ccncc2)n1CC1CCCO1)NCc1ccccc1 (stereo not given)

Compound,41,42,43,44,45,46,47,48
BJeLR viability,-4,1,·,-10,-10,0,-14,-3
Sa ugtP lethal,1,2,1,8,2,-5,·,7
RN4220 kill,7.8,4.8,4.1,5.3,3.7,3.6,·,2.7
Mtb hypoxia inh,7,21,9,12,4,5,·,6
Mtb hypoxia inh growth,9,9,-1,2,6,16,·,3
PrP UTR inh,-79,-25,-38,-11,-21,-19,-21,-8
Autofluor counter,4267,3710,3771,2470,3610,2916,4271&5884,3417

2 records picked at random from those above:
(43) CCOc1ncccc1C(=O)NCC(c1ccco1)N1CCCCC1 (stereo not given)
(45) O=C(CC1CCCC1)Nc1nnc(C2CC2)s1

Compound,43,45
BJeLR viability,·,-10
Sa ugtP lethal,1,2
RN4220 kill,4.1,3.7
Mtb hypoxia inh,9,4
Mtb hypoxia inh growth,-1,6
PrP UTR inh,-38,-21
Autofluor counter,3771,3610

(list continues)
(49) CC(CC#N)CN1CCC(C(C)(C)C)CCC1=O (stereo not given)
(50) CN1CCC(=NNC(=O)CSCc2ccccc2)CC1
(51) O=C(NCC1COc2ccccc2O1)C1CCC(CNc2c(N3CCCCC3)c(=O)c2=O)CC1 (stereo not given)
(52) Cc1ccc(Cn2nc(C)c(NC(=O)c3cc(-c4ccco4)on3)c2C)cc1
(53) COc1ccccc1C(=O)O/N=C(\N)c1ccccn1
(54) O=C(NCCN1CCCC(O)C1)c1cc(COc2ccc(F)cc2Cl)on1 (stereo not given)
(55) O=C(c1cccc(S(=O)(=O)N2CCOCC2)c1)N1CCCC1
(56) Cc1ccc(/C=C/C(=O)OCC(=O)Nc2cccnc2Cl)o1
(57) Cc1cccnc1NC1=NCC(C)S1 (stereo not given)

Compound,49,50,51,52,53,54,55,56,57
BJeLR viability,·,-6,·,3,9,16,-5,·,1
Sa ugtP lethal,-3,6,-2,0,9,7,2,-2,-2
RN4220 kill,-2.2,0.0,1.5,2.0,2.2,3.8,-2.0,4.0,7.1
Mtb hypoxia inh,15,-7,4,11,12,2,10,13,·
Mtb hypoxia inh growth,10,-11,25,2,5,6,-1,10,·
PrP UTR inh,·,-10,-41,-32,-67,-18,-25,-6,-18
Autofluor counter,·,10571,5263,11614,3542,6025,6830,4013,4652

Screening results (PubChem BioAssay)
